Source: PubChem
PINK1 modulator: changes PINK1 expression; PINK1 immunofluorescence, high-content cytometry, 24 h; Potency, µM (titrated, usually from 76.6 µM), without a hit: at the highest dose activation (PINK1 increase), hits mostly activators; 0.2% of 410,000 active; AID 624263; active = well fitted activation curve with a large enough effect; inconclusive = small, poorly fitted or top-dose-only effect; inactive = flat fitted curve, though single readings scatter; cell line not stated here;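 also: potency is read from the fitted curve at half-maximal effect; % of control where 0% means no effect; nearly all actives have a fitted effect of over 65% in size; a mitochondrial uncoupler was the plate control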
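Compound titrations (5 concentrations, 24 h) on a stable cell line; DMSO and CCCP controls. Endpoint: fixed-cell PINK1 immunofluorescence with mitochondrial, cell and nuclear markers, scanned by microplate cytometer.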
D2 potentiator: potentiates the human D2 dopamine receptor allosterically | P14416 | DiscoveRx D2 beta-arrestin cells, luminescence, 90 min; 100% = 57 uM dopamine signal | potentiation, % (test concentration not listed) | 0.23% of 360,000 active | AID 624464; active = potentiation of 50% or more; inconclusive = 30% to 50%; inactive = 30% or less;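 also: compound concentration not given in the record; tested on top of an EC20 dose of dopamine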
Target sequence (P14416 whole entry, looked up): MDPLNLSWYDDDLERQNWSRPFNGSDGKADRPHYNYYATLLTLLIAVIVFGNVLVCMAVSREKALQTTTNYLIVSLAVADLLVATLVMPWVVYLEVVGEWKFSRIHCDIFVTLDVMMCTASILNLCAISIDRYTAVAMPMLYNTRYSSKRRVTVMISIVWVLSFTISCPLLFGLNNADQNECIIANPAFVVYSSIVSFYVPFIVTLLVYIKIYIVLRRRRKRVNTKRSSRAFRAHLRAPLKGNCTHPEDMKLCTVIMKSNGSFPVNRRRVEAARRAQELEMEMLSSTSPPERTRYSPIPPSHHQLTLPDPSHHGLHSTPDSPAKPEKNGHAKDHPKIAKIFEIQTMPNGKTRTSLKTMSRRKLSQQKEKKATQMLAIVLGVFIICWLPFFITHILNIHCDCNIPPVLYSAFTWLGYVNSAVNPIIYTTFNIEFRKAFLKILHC
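PathHunter beta-arrestin assay in DiscoveRx D2 cells. Compounds were added with an EC20 of dopamine (50 nM final) for 90 min at 37 deg C. Luminescence was read 1 h after detection reagent, with 57 uM dopamine as the EC100 control.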
TRPML1 ag: activates the human TRPML1 channel | Q9GZU1 | TRPML1-expressing cells, Ca2+ dye fluorescence, FDSS; host cell line not named in the record; reference of the full effect not given here | activation, % (no concentration beside the values) | 0.12% of 410,000 active; in the data active = activation above about 50%; inconclusive = about 30% to 50%; inactive = below about 30%; also: 0% is about no effect; the text of the record puts the active cut at 80%
Target sequence (Q9GZU1 whole entry, looked up): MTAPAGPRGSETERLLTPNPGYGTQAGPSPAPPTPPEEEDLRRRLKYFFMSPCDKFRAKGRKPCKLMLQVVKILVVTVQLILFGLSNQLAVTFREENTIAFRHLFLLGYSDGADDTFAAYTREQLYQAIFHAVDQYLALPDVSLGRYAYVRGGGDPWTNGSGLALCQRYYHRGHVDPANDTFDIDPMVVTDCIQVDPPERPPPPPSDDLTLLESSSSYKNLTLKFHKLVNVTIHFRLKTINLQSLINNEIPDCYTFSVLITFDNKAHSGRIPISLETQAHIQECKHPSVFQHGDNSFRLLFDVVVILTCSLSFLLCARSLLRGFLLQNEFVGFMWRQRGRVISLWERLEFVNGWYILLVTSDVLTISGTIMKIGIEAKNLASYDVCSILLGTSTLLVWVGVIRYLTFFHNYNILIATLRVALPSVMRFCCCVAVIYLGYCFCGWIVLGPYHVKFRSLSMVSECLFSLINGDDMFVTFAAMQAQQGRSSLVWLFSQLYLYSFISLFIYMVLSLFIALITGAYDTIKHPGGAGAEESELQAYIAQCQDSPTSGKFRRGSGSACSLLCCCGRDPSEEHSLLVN
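In this qHTS format, compounds were pin-transferred onto Ca8-dye-loaded TRPML1-DL cells induced with Tet overnight, and intracellular Ca2+ fluorescence was recorded kinetically for 110 s after a 10 s baseline. A subsequent 4uM final 54-4 (EC80) addition followed by a second 110 s read served as the antagonist phase.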
D2 agonist: human D2 receptor agonism in beta-arrestin assay. P14416. DiscoveRx PathHunter D2 beta-arrestin, luminescence, 90 min; 100% = 57 uM dopamine signal. activation, % (no concentration beside the values). 0.084% of 360,000 active. AID 624465; in the data active = activation above about 40%; inconclusive = about 15% to 40%; inactive = below about 15%; also: compound concentration not given in the record; the text of the record calls up to 30% inactive
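Agonist mode: compounds alone added to overnight-plated D2 PathHunter cells for 90 min at 37 C, with 57 uM final dopamine (EC100) defining full response. Beta-arrestin recruitment detected by chemiluminescent reagent, read after 1 h at ambient temperature.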
TRPML1 inh: inhibitors of human TRPML1 channel | Q9GZU1 | TRPML1-inducible cells, Ca2+ dye fluorescence, FDSS; stronger effect = lower value; inhibition of EC80 agonist-evoked calcium signal | activity change, negative = inhibition, % (no concentration beside the values) | 0.02% of 390,000 active | AID 624415; in the data active means activity change below about -50%; inconclusive means about -30% to -50%; inactive means above about -30%;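 also: stimulus is agonist 54-4 at its EC80 concentration; % is scaled to controls: 0 for no effect and ±100 for the full control effect; compound concentration not given in the record; the text of the record puts the active cut at -80%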
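Calcium fluorescence in TRPML1-DL cells induced overnight with Tet: a 110 s read after compound pin addition, then a 110 s antagonist read after challenge with 54-4 at 4 uM final (EC80).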
Six1-Eya2 blk: blocks human Six1 binding to Eya2 | AlphaScreen GST-Six1/His-Eya2 binding, biochemical; stronger effect = lower value; control for the full effect not named in the record | activity change, % (concentration not given with the values) | 0.56% of 360,000 active | AID 651725; in the data active = activity change below about -65%; inconclusive = about -30% to -65%; inactive = above about -30%; also: % is scaled to controls: 0 for no effect and ±100 for the full control effect
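Compounds are tested against tagged Six1 and Eya2 proteins bridged by glutathione donor and nickel acceptor beads; after a one-hour incubation at 37 °C without light, AlphaScreen emission is recorded.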
* = called active by the depositor; . = not tested or not shown; [ ] = dose if it differs, or a comment. Rows are unselected, and some 1% of all compounds hit somewhere here.

item	SMILES	PINK1 modulator	D2 potentiator	TRPML1 ag	D2 agonist	TRPML1 inh	Six1-Eya2 blk
1	O=C(NCc1cccs1)c1ccc(Br)o1	2.4%	-6.6	0.2	-1.8	4.5	1.5
2	COc1ccccc1/C=C/C(=O)NCC(=O)N/N=C/c1cccnc1	4.0%	-17.6	0.4	-4.3	8.8	0.8
3	CC(=O)Oc1ccccc1C(=O)N(C1CCCCC1)C1CCCCC1	0.1%	-2.4	5.8	-4.0	0.1	-1.3
4	COc1cc(S(=O)(=O)NC2CCCCC2C)ccc1Cl (configuration not stated)	-1.9%	-12.5	1.9	-1.3	22.3	7.6
5	O=C(NCCc1ccc2c(c1)OCCO2)c1ccc(F)cc1	0.6%	-4.0	3.0	1.1	-2.4	-5.6
6	CCOC(=O)Cn1cnc([N+](=O)[O-])n1	0.1%	7.4	-0.5	-1.9	0.0	-0.6
7	CCCCC1OC23CCCCC2C(C#N)(C(=N)O3)C1(C#N)C#N (configuration not stated)	-1.5%	2.7	2.5	-1.9	1.6	-1.1
8	COc1ccc(Cc2nnc(N/N=C/c3ccc(Br)cc3)[nH]c2=O)cc1OC	7.0%	-0.3	2.1	1.3	13.0	-0.6
9	Cc1cc(C)cc(NC(=O)N2CCN3CCCCC3C2)c1 (configuration not stated)	-0.8%	.	-1.1	.	-7.2	.
10	CN(C)S(=O)(=O)c1ccc(NC(=O)c2cc3ccccc3o2)cc1	3.5%[38.3 µM]	-15.8	-0.4	0.0	-5.5	-0.5
11	S=C(NCc1ccccc1)Nc1cccc2cnccc12	-0.4%	-3.6	0.1	-1.3	36.7	6.2
12	CC(=O)NC(c1ccccc1)c1nc(-c2ccccc2)cs1 (configuration not stated)	-0.1%	-2.6	-0.1	8.0	.	-1.0
13	CCc1ccccc1NC(=O)COC(=O)c1cn(CC)c2nc(C)ccc2c1=O	1.2%	.	-1.0	.	-13.3	.
14	C/C(=N/NC(=O)CCC(=O)Nc1cccc(Cl)c1)c1ccc(C)cc1	-1.9%	-24.0	0.5	-1.5	9.9	6.4
15	CCOC(=O)c1c(C)[nH]c(C)c1S(=O)(=O)N1CCCCC1	4.4%	5.9	-0.7	5.2	-1.0	7.6
16	C[N+](C)(CC#Cc1ccccc1)CC(=O)c1ccc(Cl)cc1	-1.0%	-20.7	-0.3	-5.4	-15.4	7.5
17	CCCS(=O)(=O)NC(=O)C1(C)CCCN(C(=O)COc2ccccc2)C1 (configuration not stated)	0.7%	-7.1	-0.4	-3.3	.	6.5
18	N#CCCN(C(=O)COC(=O)COc1ccccc1Cc1ccccc1)c1ccccc1	1.9%	1.1	3.9	-2.3	24.5	3.7
19	OCC1(Cc2ccc(F)cc2)CCCN(CCCC(F)(F)F)C1 (configuration not stated)	2.2%	-3.6	0.0	-4.5	5.8	3.3
20	Cc1cccc(-c2noc(CNS(=O)(=O)c3ccccc3)n2)c1	1.9%	-2.2	2.5	-1.2	-5.0	4.5
21	CCc1ccc([C@@H]2CC=C(C(=O)O)[C@H](c3ccc(C(C)(C)C)cc3)N2S(=O)(=O)c2ccc(C)cc2)cc1	18.3%	.	0.5	3.0	-15.7	-8.8
22	COc1ccccc1NC(=O)Nc1cc(F)ccc1F	7.5%	-3.9	0.3	-2.4	33.5	-4.2
23	COc1ccc(NC(=O)NC(=O)c2cc(OCC(F)(F)F)ccc2OCC(F)(F)F)cc1	7.1%	-1.9	3.1	-0.9	-2.0	4.0
24	COc1ccc2cc(C#N)c(N3CCN(Cc4nnnn4CCC(C)C)CC3)nc2c1	-0.4%	2.6	-0.5	1.5	-12.1	10.6
25	COc1cc(C)c(C)cc1S(=O)(=O)N1CCCCC1c1cccnc1 (configuration not stated)	-0.4%	-6.5	1.0	-1.5	37.2	1.5
26	O=C(NCCc1ccc(Cl)cc1)c1ccc(CSCc2ccccc2Cl)o1	1.9%	.	2.9	.	-10.7	.
27	O=C(CSc1nnc(-c2cccc(F)c2)o1)Nc1nncs1	-0.9%	0.5	-0.2	-0.6	3.2	-11.6
28	CCCOc1ccc(-c2nc3ccccc3c(=O)o2)cc1	-5.0%	.	1.4	.	30.4	.
29	Cc1ccc2c(c1)C(c1ccccc1)C(=O)O2 (configuration not stated)	25.0%	-8.8	0.3	-2.8	2.2	-8.0
30	CC1CCN(C(=O)c2cc3c(=O)n(C)c4ccccc4c3s2)CC1	-0.3%	.	-0.5	.	20.0	.
31	CC1(C(=O)NS(C)(=O)=O)CCN1C(=O)CC(c1ccccc1)c1ccccc1 (configuration not stated)	1.6%	3.0	-0.2	6.3	.	2.5
32	COc1cc(C(=O)NNC(=O)C2CSC3(C)CCC(=O)N23)cc(OC)c1OC (configuration not stated)	2.4%	-0.9	-1.0	-1.1	-9.4	-3.4
33	COc1ccc(C2c3ccc4ccccc4c3Oc3ncn(CCCO)c(=N)c32)cc1 (configuration not stated)	-2.4%	-3.6	1.1	-1.7	31.3	2.4
34	Cc1ccccc1OCCC(=O)NNC(=O)c1ccccc1F	-0.5%	1.5	-0.7	-0.1	9.0	-0.2
35	CC(C)(C)c1ccccc1NC(=O)N1CCNC(=O)C1CC(=O)Nc1ccc(F)cc1 (configuration not stated)	-0.7%	-15.2	-0.7	-1.8	-12.9	5.8
36	Cc1nc(-c2ccc(Cl)cc2)sc1C1(C)CC(c2cccc(Cl)c2)=NO1 (configuration not stated)	1.1%	2.1	-0.3	-0.3	-13.2	8.2
37	COc1ccc(COC(=O)C2CC(=O)N(Cc3ccccc3)C2)cc1 (configuration not stated)	4.9%	5.5	-1.7	-1.1	23.7	0.5
38	CC(C)Cn1c(=O)c2ccccc2n2c(-c3ccc(Br)cc3)nnc12	-1.5%	.	-0.1	.	-5.3	.
39	COCCNC(=O)COC(=O)c1ccc(S(=O)(=O)N2CCOCC2)cc1	-1.8%	8.0	-0.2	-2.7	-18.6	-8.0
40	Cc1cc(C)c(NC(=O)NC(=O)c2cccc(F)c2)c(C)n1	2.8%[38.3 µM]	-10.0	0.0	-3.5	-3.6	1.0

11 compounds out of the list, sorted by formula weight, ascending:
item	SMILES	PINK1 modulator	D2 potentiator	TRPML1 ag	D2 agonist	TRPML1 inh	Six1-Eya2 blk
6	CCOC(=O)Cn1cnc([N+](=O)[O-])n1	0.1%	7.4	-0.5	-1.9	0.0	-0.6
28	CCCOc1ccc(-c2nc3ccccc3c(=O)o2)cc1	-5.0%	.	1.4	.	30.4	.
11	S=C(NCc1ccccc1)Nc1cccc2cnccc12	-0.4%	-3.6	0.1	-1.3	36.7	6.2
7	CCCCC1OC23CCCCC2C(C#N)(C(=N)O3)C1(C#N)C#N (configuration not stated)	-1.5%	2.7	2.5	-1.9	1.6	-1.1
34	Cc1ccccc1OCCC(=O)NNC(=O)c1ccccc1F	-0.5%	1.5	-0.7	-0.1	9.0	-0.2
20	Cc1cccc(-c2noc(CNS(=O)(=O)c3ccccc3)n2)c1	1.9%	-2.2	2.5	-1.2	-5.0	4.5
19	OCC1(Cc2ccc(F)cc2)CCCN(CCCC(F)(F)F)C1 (configuration not stated)	2.2%	-3.6	0.0	-4.5	5.8	3.3
3	CC(=O)Oc1ccccc1C(=O)N(C1CCCCC1)C1CCCCC1	0.1%	-2.4	5.8	-4.0	0.1	-1.3
14	C/C(=N/NC(=O)CCC(=O)Nc1cccc(Cl)c1)c1ccc(C)cc1	-1.9%	-24.0	0.5	-1.5	9.9	6.4
26	O=C(NCCc1ccc(Cl)cc1)c1ccc(CSCc2ccccc2Cl)o1	1.9%	.	2.9	.	-10.7	.
21	CCc1ccc([C@@H]2CC=C(C(=O)O)[C@H](c3ccc(C(C)(C)C)cc3)N2S(=O)(=O)c2ccc(C)cc2)cc1	18.3%	.	0.5	3.0	-15.7	-8.8

The listing continues.
item	SMILES	PINK1 modulator	D2 potentiator	TRPML1 ag	D2 agonist	TRPML1 inh	Six1-Eya2 blk
41	O=c1oc2ccccc2c2c1ncn2C1CCCCC1	5.6%[38.3 µM]	-17.9	0.4	-2.6	-22.1	-4.2
42	COc1cccc(NS(=O)(=O)NC(=O)c2c[nH]c3ccccc23)c1	-0.7%	-13.0	0.5	-0.1	2.4	-3.5
43	CCS(=O)(=O)N1CCN(S(=O)(=O)c2ccc(Cl)s2)CC1	2.7%	6.9	0.1	-1.5	-13.1	0.4
44	O=C(c1ccc2c(c1)OCO2)N1CCC2(CC1)Oc1ccc(Cl)cc1C(=O)C21CC(c2cccnc2)=NO1 (configuration not stated)	-1.7%	-11.5	0.4	-2.5	6.8	-6.4
45	Cc1ccccc1-c1ccc(CN2C(C)C(=O)N(Cc3cn(Cc4ccco4)nn3)CCS2(=O)=O)cc1 (configuration not stated)	-0.9%	-6.7	-0.5	-3.5	-5.9	-6.0
46	O=C(Nc1ccc(CN2CCOCC2)cc1)c1cccs1	3.6%[38.3 µM]	-9.0	1.3	0.0	6.4	-1.1
47	O=C(Nc1ccccc1Cl)c1ccccc1S(=O)(=O)c1ccccc1[N+](=O)[O-]	0.9%	4.5	1.8	-0.4	-12.5	0.0
48	CCOC(=O)C1CCN(Cc2ccc(O)c3ncccc23)CC1	25.1µM*	-20.1	-0.7	-3.4	3.5	-92.0*
49	CC(C)NC(=S)N/N=C/c1ccc(N2CCOCC2)cc1	2.1%	-5.6	-1.1	-3.7	-2.1	-7.7
50	CC(C)N(C(=O)CN1CCC(c2nc3ccccc3[nH]2)CC1)C(C)C	-0.6%	-15.1	-0.1	-2.6	-4.3	1.4
51	O=C(NC1CCN(C(=O)c2cccs2)CC1)c1ccccc1	-1.5%	-1.1	4.0	0.3	-3.2	1.0
52	O=C(NCc1ccccn1)c1ccc2c(=O)n(CCc3ccccc3)c(=O)[nH]c2c1	7.8%	-4.2	0.8	2.6	5.1	38.5
53	CC(=O)c1c(C)[nH]c(C(=O)N2CCN(S(=O)(=O)c3ccc(F)c(F)c3)CC2)c1C	4.5%	7.7	0.1	0.1	-18.6	7.5
54	COc1ccc(/C=C/C(=O)Nc2ccc(C(C)=O)cc2)cc1S(=O)(=O)N1CCOCC1	0.4%	5.1	-0.9	-0.7	3.6	0.2
55	C=CCOc1ccc(C=Nc2ccc(Cl)cc2)c(O)c1	1.8%	-6.8	0.7	-1.3	4.1	14.8
56	NS(=O)(=O)c1ccc(CCNC(=O)C2CCN(C(=O)Nc3ccccc3)CC2)cc1	1.0%	-17.4	-0.2	-2.0	0.6	25.5
